# Bioassay records from PubChem.
# HCMV NEC inh: inhibitors of HCMV UL50-UL53 interaction, biochemical, HTRF; HCMV UL50-UL53 nuclear egress complex (human cytomegalovirus); normalized percent inhibition; inhibition, % (concentration not given with the values); 190,000 compounds, 0.15% hits;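 active = both replicates at 50% or more, plus weaker picks with an unusually low signal ratio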;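 note: stock transfer was 100 nL into about 20 µL; 0% = negative control wells and 100% = wells with untagged competitor protein; inactives centre near -12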
# GIV-Gai inh: inhibitors of GIV peptide binding to Galpha-i3, primary screen, biochemical, fluorescence polarization, FITC-GIV GBA peptide, rat Galphai3; Guanine nucleotide-binding protein G(i) subunit alpha-3 (Rattus norvegicus), P08753; 90 min; active compounds read low; scaled: aluminum fluoride 0%, vehicle 100%; percent of control (FP), % (concentration not given with the values); 210,000 compounds, 0.42% hits; AID 1224905, 2016;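 active = replicate mean at 85% of control or lower, very high polarization wells dropped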;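 note: wells of about 15 µL received 100 nL stock; the first replicate is given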
# Target sequence (P08753 whole entry, looked up): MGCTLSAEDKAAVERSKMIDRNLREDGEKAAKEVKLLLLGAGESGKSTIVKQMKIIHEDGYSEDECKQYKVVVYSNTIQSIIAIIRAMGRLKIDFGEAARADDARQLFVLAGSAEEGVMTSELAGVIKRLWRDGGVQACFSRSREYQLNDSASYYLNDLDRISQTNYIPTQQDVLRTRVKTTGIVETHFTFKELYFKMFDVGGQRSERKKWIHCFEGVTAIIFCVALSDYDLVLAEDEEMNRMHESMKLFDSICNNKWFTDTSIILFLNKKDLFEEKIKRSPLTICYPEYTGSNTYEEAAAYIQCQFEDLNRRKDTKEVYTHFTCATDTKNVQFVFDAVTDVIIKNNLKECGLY
# Sa growth 42C: S. aureus growth inhibition at 42 and 30 °C, primary screen, LtaS inhibitor project, RN4220, two temperatures; 170,000 compounds, 0.53% hits; relative growth, % (no concentration beside the values); OD600, 20 h, 42 °C; active compounds read low; AID 720641, 2013;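 active = growth at 42 °C up to 50% and 20 or more points under that at 30 °C, or under 10% at both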;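 note: 300 nL library stock went into each well; scaled to the means of positive and negative controls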
# Sa growth 42C second temp: recorded beside Sa growth 42C, whose call it bears; relative growth, %; measured here: growth at 30 °C;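 optical density after 20 h as mean of two plates; 100% = untreated growth and lower means inhibition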
# Numbers without * were called inactive; nt = no result given; & = joins results of further samples.
SMILES,HCMV NEC inh,GIV-Gai inh,Sa growth 42C,Sa growth 42C second temp
Cc1ccc(C)c(NC(=O)C(C)N(c2ccccc2)S(C)(=O)=O)c1 (stereo not given),12,109,101,95
Cc1ccc(-c2cc3c(n2-c2ccc(F)cc2)CC(C)(C)CC3=O)cc1,-35,99,100,88
CCn1nc(C)c2c1c(=O)n(Cc1ccccc1)c(=O)n2Cc1ccccc1F,1,103,nt,nt
CC(=O)N1c2ccccc2C(CSc2nnc(-c3ccccc3)o2)=CC1(C)C,nt,100,77,97
CC(C)N(Cc1nc2ccccc2c(=O)[nH]1)C(=O)Cc1ccc(S(=O)(=O)N2CCOCC2)s1,-34,nt,94,90
CCOc1ccc(NC(=O)CSC2=Nc3ccccc3C3=NC(CC(=O)NCc4ccco4)C(=O)N23)cc1 (stereo not given),nt,106,96,86
CN(C)C(CNC(=O)c1n[nH]c(=O)c2ccccc12)c1ccccc1 (stereo not given),-12,nt,92,98
CCOc1ccc(Nc2nc(-c3cccc(Cl)c3)c3c(n2)-c2ccccc2OC3)cc1,-4,101,82,93
CCCC(=O)Nc1nc(-c2ccc3c(c2)NC(=O)CO3)cs1,-3,99,nt,nt
COc1cccc(-n2cc(C(=O)NCc3ccccc3OC)c3ccccc3c2=O)c1,nt,105,93,87
NC(=O)c1cc(Cl)nc2ccccc12,-52,101,99,86
Cc1ccc(C(=O)c2oc3ccccc3c2NC(=O)Cc2ccccc2)cc1,-16,104,94,85
O=C(Nc1ccc(S(=O)(=O)NCCc2ccccc2)cc1)C1c2ccccc2Oc2ccccc21,-19,96&98,110,77
CCS(=O)(=O)c1ncc(Cl)c(C(=O)Nc2c(C(=O)Nc3cccc(C)c3)oc3ccccc23)n1,-8,100,116,79
O=C(c1ccccc1Cl)N1CCN(CCc2ccccn2)CC1,-9&-13,93&103,91,91
Nc1nnnn1CC(=O)N(Cc1ccco1)C1(C(=O)Nc2ccccc2)CCCCC1,-9,nt,106,100
C1CNC(C23CC4CC(CC(C4)C2)C3)=N1,-26,99,104,85
O=C(CCS(=O)(=O)Cc1ccccc1)NCc1ccc2c(c1)OCO2,-3,107,105,99
C#CC(CC)(CC)NC(=O)c1ccc(Cl)cc1,-30,nt,65,85
COC(=O)c1cc(=O)n2c(c1C(=O)c1ccc(Cl)cc1)SCC2,-28,103,100,88

# Full records, looked up by structure.
# `C1CNC(C23CC4CC(CC(C4)C2)C3)=N1` in the list: HCMV NEC inh: -26; GIV-Gai inh: 99; Sa growth 42C: 104; Sa growth 42C second temp: 85
# `C#CC(CC)(CC)NC(=O)c1ccc(Cl)cc1` in the list: HCMV NEC inh: -30; GIV-Gai inh: nt; Sa growth 42C: 65; Sa growth 42C second temp: 85

# (further entries)
SMILES,HCMV NEC inh,GIV-Gai inh,Sa growth 42C,Sa growth 42C second temp
O=c1c2ccccc2c(/C=N/NS(=O)(=O)c2ccccc2)c(O)n1-c1ccccn1,-73,nt,109,95
CCSC1=N/C(=C\c2ccc(C(=O)O)cc2)C(=O)S1,nt,106,96,85
COc1ccc(N2CCN(C(=O)c3ccc4c(c3)N(Cc3cccc(Cl)c3)C(=O)c3ccccc3S4(=O)=O)CC2)cc1,nt,97,103,93
CN(C(=O)Nc1ccccc1)C1CCCCC1,-27,100,100,92
CCN(CCCNC(=O)CN1CCN(Cc2ccc(F)cc2Cl)C1=O)c1cccc(C)c1,-29,100,nt,nt
O=C(c1ccccc1)n1sc(=O)c2ccccc21,-28,99,66,48
O=c1c2ccccc2nc(SCc2ccccc2)n1CCCO,0,nt,92,70
CCCc1cc(=O)n2nc(N3CCC(C(=O)NCC)CC3)sc2n1,12,103,101,97
CCc1nc(Cl)c(C#N)c2c1CCCC2,nt,99,96,83
Cc1nnc2sc(SCC(N)=O)nn2c1=O,-25,99,nt,nt
Cc1nc(Cc2n[nH]c(=S)o2)cs1,-26,nt,85,88
Cc1ccc2c(c1)C(c1ccccc1)N(C(=O)c1ccc(S(=O)(=O)N3CCCC3)cc1)CC(=O)N2 (stereo not given),-20,103,82,95
C=CCN1C(=O)CSC1=Nc1ccc(NC(C)=O)cc1,6,nt,87,91
O=C(CN1C(=O)COc2ccc(S(=O)(=O)N3CCCCCC3)cc21)NCc1ccc(Cl)cc1,nt,114,105,91
CCOC(=O)c1cnc2c(c(C3CC3)nn2C)c1N1CCOCC1,-14,109,106,95
CCc1ccc(NC(=S)NNC(C)(C)C)cc1,-16,97,86,64
O=C(CN1C(=O)c2cccnc2Oc2ccc(Cl)cc21)NCCCN1CCCCC1,nt,102,86,91
COc1ccc(NC(=O)Cn2cc(S(=O)(=O)Cc3ccc(F)cc3)c3ccccc32)cc1OC,nt,104,96,75
O=C(CN1C(=O)c2cccnc2Oc2ccccc21)NCc1ccccc1,nt,101,98,89
Cc1cc(C)c(/C=C/c2onc(C)c2S(=O)(=O)N2CCC(C(=O)N3CCc4ccccc4C3)CC2)c(C)c1,1,104,nt,nt
Cc1ccccc1NS(=O)(=O)c1ccc(C2CNC(=O)C2)cc1 (stereo not given),-1,100,115,101
COc1ccc(NC(C)=O)cc1C,nt,98,82,98
COC(=O)c1cc(C(C)(C)C)[nH]n1,-29,103,107,89
COC(=O)c1ccc(OCC(=O)c2cc(C)n(-c3cc(C)on3)c2C)cc1,-9,nt,94,92
Cc1cc(=O)[nH]c2c(C)cc(S(=O)(=O)N3CCOCC3)cc12,-13,97,93,89
Cc1ccc(NC(=O)C2CCN(S(=O)(=O)c3cccs3)CC2)cc1C,-15,nt,104,93
CCn1c(=O)c(C(=O)CNc2ccc(S(C)(=O)=O)cc2)c(N)n(Cc2ccccc2)c1=O,-7,nt,97,95
Cc1ccc(OCc2ccc(-c3nc(C#N)c(NCc4ccccc4Cl)o3)o2)cc1,4,105,90,86
CCOC(=O)CSc1nc(C2CC2)cc(-c2ccc(Cl)cc2)c1C#N,-10,93,nt,nt
CCn1c(Cn2nc(C)cc2C)nc2cc(NC(=O)c3ccc(OC)cc3)ccc21,-15,99,nt,nt
CCC(Sc1nncn2c1cc1sccc12)C(=O)N1CCOCC1 (stereo not given),nt,97,85,91
CCOC(=O)C1=C(C)Nc2nnnn2C1c1ccc(OCc2ccccc2)cc1 (stereo not given),6,101,nt,nt
COc1ccc(NC(=O)Cc2ccc(NC(=O)N3CCCCc4ccccc43)cc2)c(OC)c1,nt,96,99,87
CCN1C(=O)C(C2SC(=S)N(CC)C2=O)SC1=S (stereo not given),-4,89,86,106
N#Cc1c(-n2ncnc2-c2ccc(Cl)cc2)sc2c1CCCCC2,-20,102,91,87
Cc1cccc(CCNC(=O)c2nn(C)c3c2COc2ccccc2-3)c1,nt,103,126,98
CCC1c2ccc(C)n2CCN1C(=O)Nc1cc(C)ccc1C (stereo not given),-9,110,nt,nt
CC(=O)c1ccc(N2CCN(C(=O)c3cc4ccc5cccnc5c4[nH]3)CC2)cc1,nt,97,83,89
Cc1ncn2cc(-c3ccc(Cl)cc3Cl)[nH]c(=O)c12,-38,108,104,84
CC(=O)Nc1cccc(-c2nc(-c3ccccc3)nc3ccccc23)c1,-35,95,nt,nt
O=C1c2ccccc2S(=O)(=O)N1CCSc1nncn1-c1ccccc1,-17,nt,75,81
O=C(O)C1Cc2ccccc2CN1S(=O)(=O)c1ccccc1 (stereo not given),-3,nt,102,95
COc1cccc(CN2C(=O)c3ccccc3Sc3ccc(C(=O)NCCc4ccccc4)cc32)c1,-11,99,nt,nt
Cc1cc(=O)oc2cc(OC(=O)c3cc(S(=O)(=O)N(C)C)ccc3N3CCCC3)ccc12,-11,nt,89,89
COc1cc(CC(=O)OCC(=O)NC2CCCCC2C)cc(OC)c1OC (stereo not given),-3,nt,93,91
CN(CCO)c1ncnc2c1sc1nc3c(cc12)COC(C)(C)C3,-21,98,118,82
Cc1ccc(CN2C(=O)C3(c4ccccc42)N(c2cccc(F)c2)C(=O)CS3(=O)=O)cc1 (stereo not given),nt,106,79,81
CCc1ccc(OCC2c3cc(OC)c(OC)cc3CCN2C(=O)Cc2ccc(OC)c(OC)c2)cc1 (stereo not given),nt,103,104,60
COc1ccc2nc(NC(=O)C3CCCN(S(=O)(=O)c4cccc5nonc45)C3)sc2c1 (stereo not given),nt,112,86,77
O=C1C(O)=C(c2ccccc2)C(c2ccc(Br)cc2)N1CCc1ccccc1 (stereo not given),-39,101,nt,nt
CC(C)(C)NC(=O)Nc1cccc2ccccc12,-20,104,103,103
Cc1cc(C)c(C#N)c(SCC(=O)N2CCCCC2)n1,1,nt,91,119
Cc1cc(N2CCN(C)CC2)nc2ccc(NC(=O)NCCc3ccccc3)cc12,-3,103,nt,nt
CCn1c(=O)c(-c2noc(C(=O)N3CCN(C4CCCCC4)CC3)n2)nn(-c2ccc(F)cc2)c1=O,-64,99,nt,nt
CCOC(=O)c1c(NC(=O)/C=C/c2ccc(OC)c(OC)c2)sc(C(C)=O)c1C,-6,109,97,105
O=C(NCC1CCCN1S(=O)(=O)c1ccccc1)c1ccccc1 (stereo not given),-11,108,116,94
Cc1cc(C(=O)COC(=O)c2ccccc2)c(C)n1-c1nccs1,-24,nt,105,88
O=C(Nc1ccc2snnc2c1)NC1CCCC1,nt,98,76,48
COc1ccc(-c2csc(=Nc3ccccc3)n2C)cc1,-27,102,90,90
COc1ccc(-c2cc(Nc3c(C)n(C)n(-c4ccccc4)c3=O)nc(C)n2)cc1,4,112,nt,nt
# The results go on.
SMILES,HCMV NEC inh,GIV-Gai inh,Sa growth 42C,Sa growth 42C second temp
COc1cccc(C2C3=C(CC(C)(C)CC3=O)Nc3cc4c(cc32)OCO4)c1 (stereo not given),-16,107,110,87
CC1=C(c2ccc(C)c(C)c2)S(=O)(=O)N=C1N1CCN(c2cccc(C)c2)C(C)C1 (stereo not given),-21,99,97,95
O=C1c2ccccc2C(=O)N1OCCOCCON1C(=O)c2ccccc2C1=O,-40,102,95,92
Cc1noc(/C=C/c2ccco2)c1S(=O)(=O)N1CCC(C(=O)N2c3ccccc3CC2C)CC1 (stereo not given),nt,108,100,86
CC1=C(C(=O)NCCC(C)C)C2(CCC(C)CC2)OC1=O (stereo not given),3,100,94,97
O=C(NCCc1nc2ccccc2n1Cc1ccccc1)C1CCCCC1,0,100,nt,nt
CN(Cc1ccccc1)c1nc(-c2ccc(F)cc2)cc(C(F)(F)F)n1,3,95,127,90
COCCn1c(C)cc(C(=O)COC(=O)c2cncc(Br)c2)c1C,-26,nt,113,88
O=C(/C=C/c1cccc2ccccc12)Nc1nccs1,-5,nt,107,98
Cc1cc(C(=O)N2CCN(C)CC2)no1,12,104,nt,nt
CCOC(=O)c1c(C)[nH]c2c1cc(O)c1ccccc12,-2,99,102,61
Cc1cccn2c(=O)c3cc(C(=O)N4c5ccccc5CC4C)n(C)c3nc12 (stereo not given),nt,104,99,88
Cc1cccn2c3c(c(=O)nc12)C(c1ccc(F)cc1)CC(=O)N3 (stereo not given),nt,109,90,101
Cc1nc2ccc(C(=O)OCC(=O)Nc3cccnc3Cl)cc2nc1C,-45,nt,77,90
CCN(C(=O)CSC1=N/C(=C\c2ccco2)C(=O)N1c1ccc(OC(F)F)cc1)C1CCS(=O)(=O)C1 (stereo not given),-45,nt,101,98
O=C1c2ccncc2C(=O)N1c1ccc(F)cc1Cl,-25,100,nt,nt
CCOC(=O)c1sc(N)c(C#N)c1COC(=O)c1cccc(OCc2c(C)noc2C)c1,-16,nt,104,94
CCOC(=O)C1=C(C)OC(N)=C(C#N)C1c1ccc(F)cc1 (stereo not given),-30,197,nt,nt
NS(=O)(=O)c1ccc(F)cc1F,-38,nt,106,80
Cc1ccc(SCc2cc(=O)n3c(nc4ccccc43)[nH]2)cc1,33,102,91,98
N#CCOc1ccc2oc(-c3ccccc3)cc(=O)c2c1,-16,108,114,97
CCn1cc(SCC(=O)N2N=C(c3cccs3)CC2c2ccc(C)cc2)c2ccccc21 (stereo not given),nt,98,118,95
Cc1ccc2c(c1)N(C(=O)CSc1nc3c(-c4ccccc4)csc3c(=O)n1C)CCO2,-13,101,nt,nt
CN(C)/C=C1\OC(=O)c2ccccc21,-13,103,nt,nt
Cc1cccc(NC(=O)COc2cccc3ccc(N4CCCCC4)nc23)c1,0,103,nt,nt
Cc1ccc2[nH]c(C)c(CN3CC(C)OC(C)C3)c(=O)c2c1 (stereo not given),1,101,96,79
CC(C)Nc1nc(-c2ccccc2)nnc1-c1ccccc1,-11,101,nt,nt

# 7 of the compounds above, with values under each structure.
# Results follow in this order: HCMV NEC inh | GIV-Gai inh | Sa growth 42C | Sa growth 42C second temp
C#CC(CC)(CC)NC(=O)c1ccc(Cl)cc1
 : -30 | nt | 65 | 85
COC(=O)c1cc(=O)n2c(c1C(=O)c1ccc(Cl)cc1)SCC2
 : -28 | 103 | 100 | 88
O=c1c2ccccc2c(/C=N/NS(=O)(=O)c2ccccc2)c(O)n1-c1ccccn1
 : -73 | nt | 109 | 95
CCSC1=N/C(=C\c2ccc(C(=O)O)cc2)C(=O)S1
 : nt | 106 | 96 | 85
COc1ccc(N2CCN(C(=O)c3ccc4c(c3)N(Cc3cccc(Cl)c3)C(=O)c3ccccc3S4(=O)=O)CC2)cc1
 : nt | 97 | 103 | 93
CN(C(=O)Nc1ccccc1)C1CCCCC1
 : -27 | 100 | 100 | 92
CCN(CCCNC(=O)CN1CCN(Cc2ccc(F)cc2Cl)C1=O)c1cccc(C)c1
 : -29 | 100 | nt | nt
